Source: PubChem BioAssay
StopGo reporter: lowers the luciferase signal of an FMDV 2A StopGo reporter; human cells with a luciferase reporter of 2A StopGo recoding; control for the full effect not named in the record; Potency, µM (titrated, usually from 57.9 µM), inactives show at the highest dose signal change, negative = less light; 410,000 tested, 1.2% active; AID 1159524; active = well fitted falling curve with a large enough effect; inconclusive = small, poorly fitted or top-dose-only effect; inactive = no such curve, though single readings can be large or run the other way; tested in HEK293T cells; also: % is scaled to controls: 0 for no effect and ±100 for the full control effect; nearly all actives have a fitted effect of over 45% in size; luciferase light after 4 h
RE007 growth inh: less growth of the S. pombe RE007 Vpr strain; S. pombe RE007 Vpr strain, BacTiter-Glo ATP luminescence, 24 h; control for the full effect not named in the record; Potency, µM (series often up to 92.2 µM), inactives show top-dose activity change, negative = less growth; 360,000 tested, 0.21% active; active = well fitted falling curve with a large enough effect; inconclusive = small, poorly fitted or top-dose-only effect; inactive = no such curve, though single readings can be large or run the other way;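 also: % is scaled to controls: 0 for no effect and ±100 for the full control effect; nearly all actives have a fitted effect of over 50% in size; the assay follows cell death caused by Vpr and the record does not say whether a fall means rescue or toxicity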
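Fission yeast RE007 carrying one integrated HIV-1 vpr copy, seeded at OD 0.01 in PMG+AL medium with 23 nL pinned compound. Grown 24 h at 30 degrees; viability read by BacTiter-Glo luminescence after 5 min.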
Lassa entry inh: Lassa virus entry inhibition. Lassa virus pseudotype entry inhibition, cell reporter; control for the full effect not named in the record. Potency, µM (highest dose often 37.9 µM), for inactives: top-dose activity change, negative = inhibition, actives largely listed as inhibitors. 300,000 tested, 1.2% active. AID 540256; active means well fitted inhibition curve with a large enough effect; inconclusive means small, poorly fitted or top-dose-only effect, or effect the other way; inactive means flat fitted curve, though single readings scatter; tested in HEK293 cells; also: % is scaled to controls: 0 for no effect and ±100 for the full control effect; nearly all actives have a fitted effect of over 50% in size; luciferase read-out
SARS PLP yeast: inhibitors of SARS-CoV papain-like protease in yeast; S. cerevisiae expressing SARS-CoV PLpro, growth rescue; control for the full effect not named in the record; Potency, µM (top dose mostly 32.9 µM), inactives show top-dose activity, positive = growth rescue; 330,000 tested, 0.19% active; AID 485353; also: 0% is about no effect; nearly all actives have a fitted effect of over 55% in size; growth read by luminescence after 48 h
Marburg entry inh: blocks Marburg virus binding to or entry into cells | Marburg virus pseudotyped entry inhibition, cell reporter; control for the full effect not named in the record; about a third of the inactives were read at about 46 µM | Potency, µM (titrated, usually from 37.8 µM), for inactives: top-dose activity change, negative = inhibition, hits mostly inhibitors | 300,000 tested, 1.8% active | AID 540276; active = well fitted inhibition curve with a large enough effect; inconclusive = small, poorly fitted or top-dose-only effect, or effect the other way; inactive = flat fitted curve, though single readings scatter; tested in HEK293 cells; about a fifth of its hits are not listed in these tables; also: % is scaled to controls: 0 for no effect and ±100 for the full control effect; luciferase read-out
Cruzain inh Det: blocks cruzain activity in presence of Triton detergent | purified cruzain, Z-FR-AMC fluorescence, 0.01% Triton | 200,000 tested, 0.43% active | P25779 | Potency, µM, for the others: max response, negative = inhibition, hits mostly inhibitors; active = well fitted curve in the direction sought with a large enough effect; inconclusive = small, poorly fitted or top-dose-only effect, or another doubt; inactive = no such curve, though single readings can be large; an effect the other way counts as inactive or inconclusive;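 also: plate controls were neutral wells for no effect and buffer without enzyme for full effect; nearly all actives have a fitted effect of over 40% in size; top concentration of the series not given in the record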
Target sequence (P25779 123-467 limits assumed): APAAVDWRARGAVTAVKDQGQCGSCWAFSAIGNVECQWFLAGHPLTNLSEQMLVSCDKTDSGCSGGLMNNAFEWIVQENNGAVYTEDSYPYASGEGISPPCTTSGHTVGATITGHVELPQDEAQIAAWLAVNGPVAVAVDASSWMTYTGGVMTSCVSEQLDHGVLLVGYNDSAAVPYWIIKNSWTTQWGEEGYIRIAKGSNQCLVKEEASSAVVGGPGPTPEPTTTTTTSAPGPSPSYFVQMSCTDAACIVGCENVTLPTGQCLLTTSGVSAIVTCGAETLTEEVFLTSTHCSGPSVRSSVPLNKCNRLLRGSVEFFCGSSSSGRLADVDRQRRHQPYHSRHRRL
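Steps: dispense cruzain (1.5 nM final) in acetate buffer pH 5.5 with DTT and 0.01% Triton X-100; pin-transfer compounds; incubate 15 min RT; add Z-FR-AMC (2 uM final); read fluorescence every 30 s, using the 60 s intensity change.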
NS1 function inh: inhibitors of influenza NS1 protein function; S. cerevisiae slowed by influenza A NS1, growth recovery by OD600; Potency, µM (doses to about 46.1 µM), for inactives: at the top dose activity, positive = more growth; 270,000 tested, 0.4% active; AID 2326; also: actives are rising curves; nearly all actives have a fitted effect of over 50% in size
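A cell-based growth assay was used: compounds that relieve NS1-induced slow growth of budding yeast raise OD600. Assay medium was yeast nitrogen base with ammonium sulphate and -URA supplement, pH 6.0, with 2% galactose.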
Cruzain noTriton: cruzain (T. cruzi) inhibition without detergent. purified cruzain, Z-FR-AMC fluorescence, no detergent. 200,000 tested, 2.3% active. Potency, µM, inactives show max response, negative = inhibition, actives largely listed as inhibitors. AID 1476; active = well fitted curve in the direction sought with a large enough effect; inconclusive = small, poorly fitted or top-dose-only effect, or another doubt; inactive = no such curve, though single readings can be large; an effect the other way counts as inactive or inconclusive;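 also: plate controls were enzyme without inhibitor for no effect and buffer without enzyme for full effect; nearly all actives have a fitted effect of over 40% in size; top concentration of the series not given in the record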
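Purified cruzain at 1.5 nM, pre-incubated 15 min with compound at room temperature in 100 mM sodium acetate pH 5.5, 5 mM DTT, 0.00005% Triton X-100. Reaction started with 2 uM Z-FR-AMC; AMC fluorescence increase over 60 s gives rate.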
* marks the source's active call; other numbers are inactive results; ? = inconclusive; . = not tested or not shown; & = joins results of further samples; [ ] = another dose, or the depositor's remark. Unless noted, calls follow the shape of the dose curve; as a rule, active means well fitted rising curve with a large enough effect; inconclusive means small, poorly fitted or top-dose-only effect; inactive means no such curve, though single readings can be large or run the other way. Potency is read from the fitted curve at half-maximal effect.

Each structure is followed by: StopGo reporter | RE007 growth inh | Lassa entry inh | SARS PLP yeast | Marburg entry inh | Cruzain inh Det | NS1 function inh | Cruzain noTriton
> Clc1ccc(N=NN2CCOCC2)cc1
  30.3%[activator] | 11.3% | 2.2% | 1.1% | 2.3%[46.1 µM] | . | -3.8% | .
> COc1ccccc1N(CC(=O)N/N=C(\C)c1ccc(F)cc1)S(=O)(=O)c1ccccc1
  -9.1% | 12.9% | 10.8% | -7.7% | 0.1% | . | . | .
> O=C(O)CCC(=O)Nc1cccc(C(=O)c2ccccc2)c1
  -20.4% | 5.2% | . | -0.6% | . | . | -0.6% | .
> COc1ccc(C(=O)N2N=C(c3ccccc3)CC2(O)C(F)(F)F)cc1 (stereo not drawn)
  -15.4% | -18.4% | ? | -10.0% | 12.6µM* | . | . | .
> CCOC(=O)CSc1nc2c(sc(=S)n2Cc2ccco2)c(=O)n1-c1ccccc1
  -18.7% | 14.7% | 1.9% | ? | ? | -0.5% | ? | ?
> CCOC(=O)c1cccc(NC(=O)CCNS(=O)(=O)c2cc(Br)cnc2N)c1
  5.3% | 4.8% | -31.3%[46.1 µM] | 3.8% | 26.5%[46.1 µM] | . | -10.5% | .
> COC(=O)c1ccccc1NC(=O)C1COc2ccccc2O1 (stereo not drawn)
  32.7%[activator] | ? | -19.4% | -9.8% | -31.9% | -6.8% | -12.0% | 9.8%
> COc1ccc(S(=O)(=O)N(C)CC(=O)NCCN2CCOCC2)cc1
  -6.1% | 6.0% | -1.2%[46.1 µM] | -1.3% | 3.3%[46.1 µM] | . | -31.4% | .
> O=C(Nc1ccccn1)C1CCN(C(=O)c2ccc(F)cc2)CC1
  -13.1% | 5.5% | 5.7% | 16.5% | -14.6% | . | . | .
> COc1ccc(OC)c(NC(=O)CSC2=Nc3ccccc3C3=NC(CC(=O)NCc4ccc(F)cc4)C(=O)N23)c1 (stereo not drawn)
  -6.5% | . | -0.4%[46.1 µM] | . | . | -5.7% | . | ?

Nothing new here: 2 of the compounds above.
Each structure is followed by: StopGo reporter | RE007 growth inh | Lassa entry inh | SARS PLP yeast | Marburg entry inh | Cruzain inh Det | NS1 function inh | Cruzain noTriton
> Clc1ccc(N=NN2CCOCC2)cc1
  30.3%[activator] | 11.3% | 2.2% | 1.1% | 2.3%[46.1 µM] | . | -3.8% | .
> COc1ccccc1N(CC(=O)N/N=C(\C)c1ccc(F)cc1)S(=O)(=O)c1ccccc1
  -9.1% | 12.9% | 10.8% | -7.7% | 0.1% | . | . | .

(further entries)
Each structure is followed by: StopGo reporter | RE007 growth inh | Lassa entry inh | SARS PLP yeast | Marburg entry inh | Cruzain inh Det | NS1 function inh | Cruzain noTriton
> Cc1nnc(N2CCC(C(=O)NCCc3ccccc3)CC2)c2nn(-c3ccc(Cl)cc3)c(C)c12
  0.0% | . | 11.5%[46.1 µM] | . | . | -2.9% | . | -0.8%
> CCCCCCn1c(O)c(C=NC2CCN(Cc3ccccc3)CC2)c(=O)[nH]c1=O
  ? | 20.5% | 2.3% | 6.8% | -12.7%&-12.7%&-12.7% | -8.9% | 4.4% | 3.2%
> c1ccc(C2=Nc3cccnc3C(c3ccccc3)=NN2)cc1
  27.1% | 0.6% | 1.1%[46.1 µM] | -7.2% | ? | . | . | .
> COCCNC(=O)C1CCN(S(=O)(=O)c2c(C)noc2/C=C/c2cccs2)CC1
  -4.0% | -3.8% | . | 1.5% | . | . | -2.5% | .
> COCC(C)Nc1ncnc2c1cnn2-c1ccc(Cl)cc1 (stereo not drawn)
  -9.1% | 7.7% | ? | -2.9% | ? | . | . | .
> COc1cccc(NC(=O)Cn2c(=O)n(C)c(=O)c3sc4c(c32)COC(C)(C)C4)c1
  -17.3% | -7.5% | . | -2.8% | . | . | 0.8% | .
> COc1ccc(N2C(=O)CS(=O)(=O)C23C(=O)N(Cc2ccccc2F)c2ccccc23)cc1Cl (stereo not drawn)
  0.0% | . | -21.3%[46.1 µM] | . | . | -1.9% | . | 2µM*
> COc1ccc(CCNC(=O)c2cc3sccc3n2C)cc1OC
  -29.6% | 8.8% | -21.4%[14.3 µM] | -2.0% | -4.8% | -4.6% | -6.9% | -19.7%
> CO/C=C/C#CC1(O)CCN(C)CC1
  -6.8% | -9.1% | 20.5% | 1.0% | 14.7% | -5.2% | 6.8% | 17.7%
> O=C(Nc1ccc(N=Nc2ccccc2)c(NC(=O)C2CCCO2)c1)C1CCCO1 (stereo not drawn)
  34.5%[activator] | 29.1% | ? | -7.8% | ? | -10.2% | 6.8% | ?
> C[C@@H]1CC=C[C@@H]2[C@H]1C(=O)N(Cc1ccccc1)[C@H]2c1cccc(Br)c1
  ? | 3.2% | . | -82.1% | 1.5% | -0.4% | . | -19.8%
> Cc1ccc(Cl)cc1-n1c(=O)c2sc3ccccc3c2n(CC(=O)NC2CCCC2)c1=O
  -13.7% | . | 10.3%[46.1 µM] | . | ? | -3.7% | . | -13.2%
> Cc1ccccc1CSc1nnc(Cn2c(=O)sc3ccccc32)n1C
  3.2% | -5.5% | . | 9.9% | . | -5.0% | -4.9% | -5.2%
> O=[N+]([O-])c1ccc(CSc2nnc(SCc3ccc(Cl)cc3)s2)cc1
  -6.5% | 4.8% | . | 30.9% | . | -2.7% | 7.7% | -26.9%
> O=c1ccc(OCCOc2ccccc2)nn1-c1ccccc1
  -27.1% | -23.1% | -19.1% | 3.6% | 14.8% | -3.7% | -4.7% | -7.1%
> COc1ccc(C)cc1S(=O)(=O)N(C)CC(=O)NCc1ccccn1
  0.8% | 14.0% | . | -1.4% | 1.4%[46.1 µM] | . | 5.0% | .
> CC(C)(C)NC(=O)c1cc2c(ccc3ccccc32)oc1=O
  0.0% | -8.4% | 19.8% | 4.6% | 10.2% | . | -1.6% | .
> Cc1cccc(OCCCCN2CCNCC2)c1
  10.9% | 5.6% | -2.3%[46.1 µM] | . | 17.0%[46.1 µM] | . | . | .
> CCn1cc(Br)c(C(=O)NC(=S)Nc2ccc(C(=O)OC)cc2)n1
  21.0% | -15.6% | -5.0% | 0.6% | 2.6% | 0.3% | -7.4% | ?
> COc1ccc(-c2c([C@H]3[C@H]4C=CC[C@@H](C)[C@@H]4C(=O)N3Cc3ccccc3)ccc3ccccc23)cc1OC
  ? | 2.9% | . | -1.1% | . | . | 4.3% | .
> C/C(CS(=O)(=O)c1ccccc1)=N\O
  -0.1% | 2.1% | 10.2% | -0.6% | -6.6%[46.1 µM] | . | 6.1% | .
> Cc1ccc(C(C(=O)NC(C)(C)C)N(Cc2ccc3c(c2)OCO3)C(=O)c2ccc(CN3CCOCC3)o2)o1 (stereo not drawn)
  15.4% | 17.1% | -6.7% | 0.7% | 8.7%[46.1 µM] | . | -0.3% | .
> COC(=O)c1c(NC(=O)COc2c(C)cccc2C)sc2c1CCCC2
  -28.7% | . | 16.8%[46.1 µM] | . | . | -0.8% | . | 4.0%
> Cc1ccc(CN2CC(C(=O)Nc3ncc(C)s3)CC2=O)cc1 (stereo not drawn)
  -2.7% | 6.5% | 5.6% | -4.5% | -6.8% | . | . | .
> N#C/C(=C\c1ccccc1)c1n[nH]c(Cn2cncn2)n1
  -17.5% | 17.2% | 13.5% | 26.6% | 11.5% | 0.1% | -5.2% | -7.4%
> CCOc1ccc(C(=O)Nc2cccc(-c3nc4cc(Cl)cc(Cl)c4o3)c2)cc1
  -20.8% | . | -4.3%[46.1 µM] | . | . | -0.3% | . | -1.5%
> CCOC(=O)Cn1c(=N)n(CCOc2cccc(C)c2)c2ccccc21
  -15.9% | -13.9% | 3.8% | -4.9% | -23.9% | -2.1% | 0.2% | 2.6%
> CC(Oc1ccc(-c2nnco2)cc1)C(=O)N1CCOCC1 (stereo not drawn)
  -0.6% | -4.6% | 2.4%[46.1 µM] | . | ? | . | . | .
> Cc1ccc(N(CC(=O)NC(C)(C)C)C(=O)CNC(=O)c2cccs2)cc1
  -4.8% | 7.5% | -7.9%[46.1 µM] | 0.9% | 2.4%[46.1 µM] | . | 1.6% | .
> COc1ccc(N2CCN(CC(O)COc3ccc4c(c3)CCC4)CC2)cc1 (stereo not drawn)
  ? | 12.7% | -14.1% | -5.6%[6.58 µM] | ? | -2.3% | -9.1% | 9.6%
> O=C(COC(=O)C1CC(O)CN1S(=O)(=O)c1ccc(Cl)cc1)c1ccccc1 (stereo not drawn)
  -6.0% | -24.6% | 3.9% | -11.2% | 1.3% | -2.6% | -7.8% | -4.2%
> Cc1ccc(NS(=O)(=O)c2ccc(NC(=O)C3CC3)cc2)cc1C
  -24.7% | -5.4% | ? | -7.7% | ? | . | 3.4% | .
> CN=C1S/C(=C\c2ccc(N3CCOCC3)cc2C)C(=O)N1C
  -12.9% | 22.1% | 1.8% | 19.9% | 5.8% | -6.5% | -8.9% | 17.4%
> O=C(CN1C(=O)COc2ccc(Cl)cc21)N1CCCCC1
  22.1% | -11.7% | 29.3%[46.1 µM] | 4.3% | -0.8%[46.1 µM] | . | -8.3% | .
> CCc1ccc(S(=O)(=O)NCc2nc3cccnc3n2Cc2ccccc2Cl)cc1
  13.1% | . | ? | . | . | -6.9% | . | 10.4%
> CCOc1ccc(S(=O)(=O)NNS(=O)(=O)c2ccc(C)cc2C)cc1
  5.4% | 6.4% | -9.0% | -4.2% | 3.4%[46.1 µM] | . | 0.4% | .
> CCCOc1ccc(C(=O)c2nc3c(n2O)CCCCC3)cc1
  -4.8% | -10.6% | -6.2% | 29.8% | 22.5% | -7.2% | -15.1% | 4.8%
> COC(=O)c1c(NC(=O)c2ccco2)sc2c1CC(C)(C)NC2(C)C
  -20.3% | 12.7% | 1.6% | 0.7% | ? | . | 22.2% | .
> COc1ccc(-c2nc(NC(=O)CSc3nnc(C)s3)ns2)cc1
  35.9%[activator] | 23.6% | ? | 3.4% | 26.6% | 0.0% | 13.7% | ?
